FGF22 binding = binders of human FGF22 protein, primary screen, FGF22 synaptogenesis inhibitor project, biophysical, thermal shift, single point | Fibroblast growth factor 22 (Homo sapiens), Q9HCT0 | recombinant FGF22 thermal shift, SYPRO orange fluorescence; percent of sucrose octasulfate shift, DMSO zero | calls only at 9.99 µM | actives 1.5% (n = 340,000) | AID 651658, 2012;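 active = melting point raised past a set limit in the mean and every replicate; inconclusive = no clear call; three in four hits are not shown here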
Target sequence (Q9HCT0 whole entry, looked up): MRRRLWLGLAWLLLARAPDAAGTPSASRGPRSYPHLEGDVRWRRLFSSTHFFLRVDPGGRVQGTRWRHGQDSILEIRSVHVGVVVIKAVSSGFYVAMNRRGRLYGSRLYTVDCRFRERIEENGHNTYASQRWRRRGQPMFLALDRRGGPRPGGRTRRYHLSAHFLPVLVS
RanGTP-Impb inh = inhibitors of RanGTP-importin-beta interaction, primary screen, biochemical, FRET, CFP-Ran, YFP-importin-beta, homogeneous. Ran GTPase (GTP-bound) - importin-beta complex. AID 2216, 2009. actives 1.1% (n = 300,000). cell-free CFP-Ran/YFP-importin-beta FRET ratio. inhibition, % (concentration not given with the values);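 active = most replicates above 15%; inconclusive = exactly half above 15%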;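 note: 0% = DMSO wells and 100% = Ran loaded with GDP instead of GTP; wells of about 40 µL received 100 nL stock; the first replicate is given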
Vif A3G = inhibitors of Vif binding to APOBEC3G peptide, primary screen, biochemical, TR-FRET, GST-Vif 1-94, biotin-A3G peptide, dose response retest (AID 1117319); TR-FRET GST-Vif / biotin-A3G peptide binding; higher % means a stronger effect; test concentration not given here; strong numbers were not always called active; inhibition, %, or IC50 in µM where a hit was titrated; actives 0.57% (n = 260,000);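 active = above the screen mean plus three standard deviations and confirmed in dose response; inconclusive = results disagree or hit not tested in dose response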;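 note: Vif residues 1-94 fused to GST binding biotinylated APOBEC3G peptide 110-148; 0% = full assay without inhibitor and 100% = GST in place of GST-Vif; retest series ran down from 100 µM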
Ecoli growth = E. coli growth inhibition, primary screen, OD600; Escherichia coli growth, 23 h; stronger effect = lower value; OD600 absorbance (test concentration not listed); actives 0.21% (n = 330,000); AID 1053175, 2014;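 active = OD600 absorbance below the run mean of sample wells minus 3.6 SD, in any replicate, cut at about 0.56 in these data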;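 note: stock transfer was 300 nL into about 60 µL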
AF4-AF9 inh = inhibitors of AF4 peptide binding to AF9, primary screen, biochemical, AlphaScreen, biotin-AF4 peptide, FLAG-AF9, single point. AID 651704, 2012. actives 0.47% (n = 350,000). inhibition, % at 10 µM. Protein AF-9 (Homo sapiens), P42568;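 active = every replicate reaching a set inhibition limit, whatever the replicate mean, cut at about 25% in these data; inconclusive = mean inhibition reaches that limit but some replicates miss it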;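 note: 0% = plate neutral control median and 100% = total signal loss; the record names both 10 and 1 µM as test concentration; the first replicate is given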
Target sequence (P42568 whole entry, looked up): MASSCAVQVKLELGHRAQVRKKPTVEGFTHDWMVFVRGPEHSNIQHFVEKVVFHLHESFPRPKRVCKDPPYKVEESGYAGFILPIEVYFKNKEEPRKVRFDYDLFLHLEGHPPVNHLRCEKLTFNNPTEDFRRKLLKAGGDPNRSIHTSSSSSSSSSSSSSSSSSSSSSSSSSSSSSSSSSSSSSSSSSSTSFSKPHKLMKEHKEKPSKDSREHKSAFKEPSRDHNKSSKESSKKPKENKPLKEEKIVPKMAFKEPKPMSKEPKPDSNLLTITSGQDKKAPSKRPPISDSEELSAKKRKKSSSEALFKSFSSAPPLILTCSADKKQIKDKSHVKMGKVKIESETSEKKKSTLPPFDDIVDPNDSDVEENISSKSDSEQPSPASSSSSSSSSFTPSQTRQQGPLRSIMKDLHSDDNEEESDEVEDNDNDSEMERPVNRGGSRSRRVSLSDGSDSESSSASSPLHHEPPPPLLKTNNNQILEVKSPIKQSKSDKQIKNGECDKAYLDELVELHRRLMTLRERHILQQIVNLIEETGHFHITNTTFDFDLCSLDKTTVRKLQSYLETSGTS
UCH37 inh = inhibitors of human UCH37 deubiquitinase, primary screen, biochemical, Ub-AMC cleavage, fluorescence; actives 0.33% (n = 330,000); purified proteasome/UCH37; Ubiquitin carboxyl-terminal hydrolase isozyme L5 (Homo sapiens), Q9Y5K5; inhibition, % (test concentration not listed);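 active = mean of two replicates above 20%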;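 note: 0% = compound-free wells with enzyme and 100% = wells lacking proteasome; stock transfer was 100 nL into about 20 µL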
Target sequence (Q9Y5K5 whole entry, looked up): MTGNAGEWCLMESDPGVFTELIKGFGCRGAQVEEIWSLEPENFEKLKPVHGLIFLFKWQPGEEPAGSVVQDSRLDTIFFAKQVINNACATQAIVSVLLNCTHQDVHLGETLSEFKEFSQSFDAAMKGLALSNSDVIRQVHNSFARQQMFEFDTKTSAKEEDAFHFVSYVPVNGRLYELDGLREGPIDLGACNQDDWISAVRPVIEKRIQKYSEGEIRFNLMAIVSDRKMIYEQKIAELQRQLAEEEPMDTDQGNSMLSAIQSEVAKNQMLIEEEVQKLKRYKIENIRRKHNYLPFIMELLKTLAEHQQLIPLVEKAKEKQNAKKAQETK
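Material: Human UCH37 enzyme supplied as purified proteasome complex | Schedule: 30 min preincubation with enzyme, 25 min cleavage at room temperature | Detection: AMC fluorescence 355/460 nm | Measure: % inhibition of Ub-AMC cleavage fluorescence | Controls: Wells without proteasome as full block, compound-free enzyme plus substrate as uninhibited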
HNF4A DNA FP = change in binding of human HNF4A to DNA, primary screen, biochemical, fluorescence polarization, FITC-DNA | activity change, % at 10 µM | actives 0.3% (n = 360,000) | 1 h | Hepatocyte nuclear factor 4-alpha (Homo sapiens), P41235; in the data active = activity change above about 30%, passing the limit was not always enough;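 note: controls were the assay level and a saturating level of protein; the project sought stronger binding though the title names inhibitors; some compounds called inactive have numbers as strong as hits; positive values seem to mean higher polarization but the record does not say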
Starred values were filed as active, the others as inactive; i = inactive; ? = inconclusive; nt = not tested or not shown. This is a subset; the hit share may differ from the screen's.

SMILES	FGF22 binding	RanGTP-Impb inh	Vif A3G	Ecoli growth	AF4-AF9 inh	UCH37 inh	HNF4A DNA FP
O=C(Cc1cccs1)NNC(=O)c1ccc(F)cc1	i	-1.0	nt	nt	-4.3	nt	-1.4
c1ccc(OCCCCN2CCCCC2)cc1	i	1.4	-4%	0.64	-2.9	2.9	-2.7
O=C(CC1CCCCC1)NCc1nc(-c2ccccc2)no1	i	-2.3	nt	0.69	7.4	4.6	2.9
CCN(C(=O)COC(=O)CNS(=O)(=O)c1ccc(SC)c([N+](=O)[O-])c1)C1CCCCC1	i	2.3	nt	nt	-11	nt	4.1
CCOc1ccccc1-c1nc(-c2cc3ccccc3nc2OC)no1	nt	?	-37%	0.77	nt	-8.0	9.9
C=CCOC(=O)C1=C[C@H](c2cn(C(C)=O)c3ccccc23)[C@@H](CCCO)[C@H](OCC)O1	i	0.4	-12%	0.79	-0.4	4.5	-2.6
Cc1ccc(S(=O)(=O)NNC(=S)Nc2cccc(C)c2C)cc1	i	0.2	1%	0.66	-5.8	3.1	0.3
COc1cccc(/C=N/NC(=O)c2ccccc2NC(=O)c2ccco2)c1OC	i	8.3	10%	nt	8.5	nt	-0.3
COc1ccc(CNC(=O)c2cn(Cc3ccc(OC(C)=O)cc3)c(=O)s2)cc1	i	nt	nt	nt	-1.6	nt	1.4
COc1cc(CN(C)C(C)C(=O)Nc2ccc([N+](=O)[O-])cc2Cl)ccc1OC(F)F (stereo not drawn)	nt	0.7	nt	0.69	nt	3.5	1.1
Cn1c(SCCCC(=O)c2ccccc2)nnc1-c1ccncc1	nt	1.8	3%	0.65	nt	4.5	-0.2
O=C1CSC(=S)N1c1cccc(O)c1	i	0.3	-5%	0.59	1.2	3.0	1.9
CC(=O)c1ccc(S(=O)(=O)NC2CC(=O)N(c3ccc(C)c(C)c3)C2)cc1 (stereo not drawn)	i	-2.2	4%	0.66	-0.2	3.4	-0.5
CCOCCOC(=O)COC(=O)c1ccccc1NC(=O)c1ccccc1	i	0.3	2%	0.71	-5.0	-0.5	0.5
COc1ccc(-c2cc(N3CCN(CCO)CC3)n3nccc3n2)cc1	i	nt	nt	nt	1.1	nt	5.0
O=C(COc1cccc(NC(=O)c2cccs2)c1)c1ccc(F)cc1	i	-0.5	-8%	0.59	-0.8	0.8	3.3
CCc1nc2ccc(C(=O)NCCCN3CCN(c4ccccc4F)CC3)cc2nc1CC	i	0.6	-8%	0.66	11	1.3	-0.6
O=C(O)c1ccccc1SCC(=O)N1CCCCC1	nt	-3.2	-2%	0.73	nt	2.2	1.7
CN(C)S(=O)(=O)c1cccc(NC(=O)CSc2nncn2C)c1	i	5.4	nt	0.69	-17	2.3	-0.5
CC1Cc2nc(SCC(=O)NCCc3ccccc3)n(C)c(=O)c2S1 (stereo not drawn)	i	5.1	24%	0.72	-4.0	13	2.3
Cc1nc(=O)c(-c2ccccc2)c(C)n1-c1ccccc1	i	?	nt	0.66	-6.4	2.0	0.2
CC(C)(C)c1ccc(C(CC(=O)O)NC(=O)CSc2ccccc2)cc1 (stereo not drawn)	i	-0.8	-6%	0.67	-4.8	1.5	2.2
COc1ccc2c(c1)cc1n2CCN=C1N	nt	?	-1%	0.68	nt	-66	0.5
CC(=O)N1CCc2cc(S(=O)(=O)NC(Cc3ccccc3)C(=O)NCCN3CCCCC3C)ccc21 (stereo not drawn)	i	1.6	19%	0.7	-1.6	1.6	5.5
Cc1c(CN2CCC(C)CC2)c(=O)n(-c2ccccc2)n1C	nt	0.6	1%	0.71	nt	4.0	-0.7
SMILES	FGF22 binding	RanGTP-Impb inh	Vif A3G	Ecoli growth	AF4-AF9 inh	UCH37 inh	HNF4A DNA FP
COC(=O)c1ccc(Cn2c(C)c(C(=O)NCc3cccc(C(F)(F)F)c3)sc2=O)o1	i	nt	nt	nt	12	nt	3.0
COc1ccc(C(=O)Nc2ccccc2C(=O)NC(Cc2ccc(O)cc2)C(=O)NNC(=O)c2ccccc2)cc1 (stereo not drawn)	nt	-0.2	nt	0.72	nt	-25	-0.2
O=C(O)CCC(=O)NCC1OCCc2ccccc21 (stereo not drawn)	nt	0.7	6%	0.67	nt	0.3	-0.3
CC1CCCC(C)N1C(=O)CSc1nc(N)c(-c2ccccc2)c(=O)[nH]1 (stereo not drawn)	i	1.6	-3%	0.65	-0.4	1.7	2.0
CN1CCN(CC(O)COc2ccc(C34CC5CC(CC(C5)C3)C4)cc2)CC1 (stereo not drawn)	i	nt	13%	0.61	23	11	2.6
COc1ccc(N2CCN(C(=O)c3ccc4c(=O)n(CCc5ccc(OC)c(OC)c5)c(=O)[nH]c4c3)CC2)cc1	i	8.4	18%	0.72	0.3	1.2	7.3
Cc1ccc(S(=O)(=O)N2CCC(C(=O)N3CCCC3C(=O)N[C@@H](CC(C)C)C(=O)NCC(N)=O)CC2)cc1 (stereo partly drawn)	i	3.2	nt	0.7	0.0	2.8	5.5
CC(C)N1CC(C(=O)Nc2ccc(C#N)cc2)CC1=O (stereo not drawn)	i	5.0	nt	0.67	-8.6	3.4	-0.1
CCCN(CCC)C(=O)Cn1c(=O)n(CCCCCC(=O)Nc2ccccc2)c(=O)c2sccc21	nt	2.2	nt	0.65	nt	1.2	2.0
Cc1ccc(Cl)cc1NC(=O)CN1CCN(S(=O)(=O)N2CCC(C)CC2)CC1	i	-4.9	nt	0.66	0.1	5.4	0.9
CCCCNC(=O)Oc1cccc(N2CCCC2=O)c1	nt	1.5	76%	0.7	nt	5.6	-1.4
Cc1c(C(=O)NNS(=O)(=O)c2ccccc2)sc(=S)n1C	i	0.4	32%	0.69	-2.1	2.1	0.1
O=C(CCS(=O)(=O)c1ccccc1)NCCS(=O)(=O)c1ccccc1	i	-0.5	12%	0.72	-1.4	3.1	-3.4
Clc1ccc(-c2noc(CN3CCOCC3)n2)cc1	nt	2.3	1%	0.67	-1.7	4.6	1.9
Cc1ccc(C2=NN(CC(=O)O)C(=O)CC2)cc1	i	-2.2	-1%	0.68	-1.0	4.8	-8.3
COC(=O)C1=CN(c2ccc(OC)cc2)C(N)=C(C#N)C1c1cccc2ccccc12 (stereo not drawn)	i	nt	nt	nt	6.1	nt	0.8
CCCCSc1nc(O)cc(=O)n1CC	nt	0.8	-6%	0.69	-3.4	4.4	1.6
CC(C)c1ccc(N(C(=O)CNC(=O)c2ccco2)C(C(=O)NC2CCCC2)c2ccncc2)cc1 (stereo not drawn)	i	-4.0	nt	0.7	-0.5	-0.7	-1.5
COc1cc([N+](=O)[O-])cc(/C=N/N(CCC#N)C(C)=O)c1O	nt	-4.7	-3%	nt	-2.6	nt	4.8
Cc1ccc(N2CC(C(=O)NCCS(=O)(=O)N3CCN(c4ccccc4)CC3)CC2=O)cc1C (stereo not drawn)	i	1.9	4%	0.72	0.0	1.6	2.0
CC(=O)c1ccc(OCc2cc(C(=O)N(C)CCN3CCOCC3)no2)cc1	i	3.1	-7%	0.69	-0.3	2.5	4.7
Cc1cccc(NC(=S)N2CCC(C(=O)c3ccc(F)cc3)CC2)c1	i	nt	0%	nt	2.0	nt	-4.2
COc1ccc(C2c3[nH]c4ccccc4c3CCN2CCCn2cccn2)c(F)c1 (stereo not drawn)	i	-2.3	5%	0.64	14	-8.8	-5.5
CCOC(=O)Cn1c(=O)oc2cc(S(=O)(=O)N3CCN(C(=O)OCC)CC3)ccc21	i	3.8	nt	0.64	-0.7	-0.2	0.1
Cc1onc(-c2c(F)cccc2Cl)c1C(=O)NCCO	i	3.3	nt	0.67	-2.0	2.8	0.4

A section from the list above, as a working copy:
SMILES	FGF22 binding	RanGTP-Impb inh	Vif A3G	Ecoli growth	AF4-AF9 inh	UCH37 inh	HNF4A DNA FP
O=C(Cc1cccs1)NNC(=O)c1ccc(F)cc1	i	-1.0	nt	nt	-4.3	nt	-1.4
c1ccc(OCCCCN2CCCCC2)cc1	i	1.4	-4%	0.64	-2.9	2.9	-2.7

Carrying on:
SMILES	FGF22 binding	RanGTP-Impb inh	Vif A3G	Ecoli growth	AF4-AF9 inh	UCH37 inh	HNF4A DNA FP
CCn1c(=O)c2cc(C(=O)NCc3cccs3)sc2c2ccccc21	i	nt	-31%	0.72	-3.5	-30	1.7
Cc1ccc([C@H]2C[C@H](n3cc(C4CC4)nn3)[C@@H](O)CN2C(=O)C2CCCCC2)cc1	i	nt	nt	nt	-0.5	nt	-0.4
COc1ccc(C(=O)NCCn2cc(SCC(=O)NCC3CCCO3)c3ccccc32)cc1OC (stereo not drawn)	i	9.5	4%	0.67	-3.3	1.1	1.0
CC(C)NCC(=O)C12CC3CC(CC(C3)C1)C2	i	-1.8	-3%	0.65	7.9	1.3	0.6
COc1cc(CC(=O)OCC(=O)N2C(C)CCCC2C)cc(OC)c1OC (stereo not drawn)	i	4.5	-7%	0.69	-0.5	2.1	-1.7
O=C(NCCC1=CCCCC1)C(=O)NCc1ccncc1	i	-0.3	1%	0.68	1.0	3.7	0.2
CCCOc1ccc(-c2nn(-c3ccccc3)cc2/C=C2\SC(N)=NC2=O)cc1	i	19*	-8%	nt	0.7	-15	5.9
C/C(=N\Nc1ncc(Br)cn1)c1cccc([N+](=O)[O-])c1	i	4.7	nt	nt	0.7	nt	4.5
COCCN(C(=O)COC(=O)c1cccs1)c1c(N)n(Cc2ccccc2)c(=O)[nH]c1=O	i	-3.3	nt	0.72	-3.2	0.8	-0.4
Nc1ccccc1C(=O)NCC1(c2ccccc2)CCCC1	i	-0.5	-5%	0.66	-4.6	-39	-1.9
COCCN1C=C2C(=O)C(C)(OC(=O)C3CCCC3)C(=O)C(c3ccccc3)=C2C=C1CCCC(=O)OC (stereo not drawn)	i	3.5	nt	0.69	3.7	2.5	-6.9
O=C(NNc1ccc(Cl)cc1)c1cccs1	i	-0.4	-8%	nt	-2.6	nt	4.3
CC(C)(/C=N/O)N(O)C=C1C=CC(=O)C=C1	i	2.5	nt	nt	-1.5	nt	-3.3
CC(C)C[C@@H](CN1CCC[C@H]1CN1C(=O)C(=O)NC[C@@H]1Cc1ccccc1)N1C[C@H](Cc2ccc(O)cc2)N(CC2CCCCC2)C(=O)C1=O	i	nt	nt	nt	-11	nt	1.0
COc1cc2c(cc1OC)C1=C(C#N)CN(C3CCCCC3)CN1CC2	i	-0.3	-1%	0.7	-4.4	-18	2.9
CC(=O)Nc1cccc(C(=O)Nc2cccc3ncccc23)c1	i	-0.8	nt	0.65	-0.2	2.8	2.8
CN(CC(=O)Nc1ccc(F)cc1)CC(=O)N1CCCCCC1	i	nt	9%	0.7	-4.4	5.0	1.4
Cc1cc(C)cc(N(CC(=O)NC2CCCC2)C(=O)CCC(=O)Nc2nccs2)c1	i	3.6	nt	0.73	-0.1	3.7	3.9
O=C1c2ccccc2C(=O)N1CC#CCN1CCN(C(c2ccccc2)c2ccccc2)CC1	nt	1.3	-4%	0.78	nt	-3.7	-3.5
N#Cc1ccccc1COC(=O)CCCC1=NS(=O)(=O)c2ccccc2N1	i	1.0	nt	0.68	1.1	0.4	-11

Profiles as entered above. Screens in order: FGF22 binding, RanGTP-Impb inh, Vif A3G, Ecoli growth, AF4-AF9 inh, UCH37 inh, HNF4A DNA FP
Results for `CC(C)(/C=N/O)N(O)C=C1C=CC(=O)C=C1` = i, 2.5, nt, nt, -1.5, nt, -3.3
Results for `CCCOc1ccc(-c2nn(-c3ccccc3)cc2/C=C2\SC(N)=NC2=O)cc1` = i, 19*, -8%, nt, 0.7, -15, 5.9
